High-throughput results: PubChem, Broad Institute
MITF inhib: inhibitors of MITF, primary screen, MITF inhibitor project, cell-based, luminescence. TRPM1 promoter luciferase, 24 h. inhibition, % (test concentration not listed). 0.28% of 37,000 active. AID 2240, 2010;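 active means most replicates at 85% or more, or half of them and the mean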;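 further: human melanocyte line stably carrying TRPM1 promoter luciferase reporter; 0% = vehicle wells and 100% = a positive control; the first replicate is given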
* hit, by the source's call. The list is partial; count on the stated rates, not on these rows.

#1 O=C(O)CCCC(=O)Nc1ccc([N+](=O)[O-])cc1
  MITF inhib: 3
#2 Cc1ccc(OCC(=O)Nc2ncc(C(F)(F)F)cc2Cl)c(Br)c1
  MITF inhib: -20
#3 Cc1onc(-c2ccccc2)c1C(=O)Nc1cccc(S(=O)(=O)N(C)C)c1
  MITF inhib: 2
#4 COc1cccc(CNc2nn[nH]n2)c1OC
  MITF inhib: -7
#5 O=C(NC(=S)Nc1ccccc1-c1nc2ccccc2s1)c1ccco1
  MITF inhib: -24
#6 O=C(O)C1CC=C(Cl)CC1C(=O)Nc1ccc(Br)cc1 (stereo not drawn)
  MITF inhib: -7
#7 O=C(CSc1nc(N2CCCCC2)nc(N2CCCCC2)n1)Nc1ccc([N+](=O)[O-])cc1
  MITF inhib: 16
#8 Cn1c(SCc2nc(-c3ccc(Cl)cc3)no2)nnc1-c1ccccc1
  MITF inhib: 5
#9 Cc1ccc(C)c(S(=O)(=O)NCc2cccnc2)c1
  MITF inhib: -6
#10 O=C(O)COc1ccc(S(=O)(=O)NC2CCCCC2)cc1Cl
  MITF inhib: -14

An excerpt of these results, as a markdown table:
| nr | Compound | MITF inhib |
| --- | --- | --- |
| 10 | O=C(O)COc1ccc(S(=O)(=O)NC2CCCCC2)cc1Cl | -14 |
| 7 | O=C(CSc1nc(N2CCCCC2)nc(N2CCCCC2)n1)Nc1ccc([N+](=O)[O-])cc1 | 16 |
| 9 | Cc1ccc(C)c(S(=O)(=O)NCc2cccnc2)c1 | -6 |

(listing goes on)
#11 Cc1cc2ncn(CC(O)COc3ccc(N)cc3)c2cc1C (stereo not drawn)
  MITF inhib: 7
#12 COC(=O)c1c(NC(=S)Nc2cc(OC)c(Cl)cc2OC)sc2c1CCCCC2
  MITF inhib: 2
#13 CCOc1ccc(C(=O)Nc2ccc(OCC(=O)O)cc2)cc1
  MITF inhib: 32
#14 CC(NS(=O)(=O)c1ccc(F)cc1)C(=O)Nc1ccc(Oc2ccccc2)cc1 (stereo not drawn)
  MITF inhib: 33
#15 O=C(Nc1ccccc1[N+](=O)[O-])c1cccc(S(=O)(=O)Nc2ccc(I)cc2)c1
  MITF inhib: 16
#16 COc1ccc(NC(=O)c2ccccc2NC(=O)COc2ccc(Cl)cc2)cc1
  MITF inhib: -24
#17 O=C(NCCCN1CCOCC1)c1cnn2c(C(F)(F)F)cc(-c3ccccc3)nc12
  MITF inhib: -27
#18 O=C(CNC(=O)c1ccc([N+](=O)[O-])cc1)Nc1ccccc1C(F)(F)F
  MITF inhib: -14
#19 COc1cc(Cl)c(C)cc1NC(=O)CSc1nnnn1-c1ccccc1
  MITF inhib: -5
#20 COc1ccc([N+](=O)[O-])cc1NC(=O)CN(c1ccc(Cl)c(Cl)c1)S(C)(=O)=O
  MITF inhib: 1

#21 COc1cc(NC(=O)CSc2ncnc3sc4c(c23)CCCC4)cc(OC)c1
  MITF inhib: 5
#22 O=C(CCN1C(=O)c2ccccc2C1=O)Nc1ccccc1C(=O)N1CCCC1
  MITF inhib: 1
#23 O=C(CN1CCN(S(=O)(=O)c2cccc([N+](=O)[O-])c2)CC1)Nc1ccc(F)cc1
  MITF inhib: 4
#24 COc1ccccc1-n1nnnc1SCC(=O)Nc1ccc(Br)cc1
  MITF inhib: -3
#25 Cc1ccc(C2(CCNCc3ccco3)CCOC(C(C)C)C2)cc1 (stereo not drawn)
  MITF inhib: 12
#26 O=C(CSc1ccccc1)Nc1ccc(C(=O)Nc2ccc(Br)cc2C(=O)O)cc1
  MITF inhib: -8
#27 Cc1cccc(NC(=O)c2cc(NC(=O)C3CCCCC3C(=O)O)ccc2N2CCOCC2)c1 (stereo not drawn)
  MITF inhib: 0
#28 O=C(NCCCn1ccnc1)c1cc(-c2ccccn2)nc2ccc(Br)cc12
  MITF inhib: 13
#29 O=C(CCCN1C(=O)c2ccccc2C1=O)Nc1ccc2c(c1)OCCO2
  MITF inhib: -27
#30 Cn1c(SCC(=O)Nc2ccc(Cl)c(Cl)c2)nnc1-c1ccc(Cl)c(Cl)c1
  MITF inhib: 32

#31 COc1ccc(S(=O)(=O)N2Cc3ccccc3CC2C(=O)O)cc1OC (stereo not drawn)
  MITF inhib: -20
#32 COc1ccccc1-n1c(SCC(=O)N2CCOCC2)nc2ccccc2c1=O
  MITF inhib: 0
#33 N#Cc1ccccc1CSc1nc2ccc(NC(=O)c3ccc(F)cc3)cc2s1
  MITF inhib: 1
#34 N#Cc1c(-c2ccccc2)cc(-c2ccccc2)nc1SCC(=O)O
  MITF inhib: 29
#35 Cc1cc(C)n(C(=O)CN(C)S(=O)(=O)c2ccc([N+](=O)[O-])cc2)n1
  MITF inhib: -12
#36 CSCCC(Nc1ncnc2sc3c(c12)CCCC3)C(=O)O (stereo not drawn)
  MITF inhib: -12
#37 Nc1ncnc2c1ncn2CCN1CCOCC1
  MITF inhib: -5
#38 O=C(CCc1nc(-c2ccc(Cl)cc2)no1)N1CCOCC1
  MITF inhib: -25
#39 O=C(CCn1cnc2ccccc2c1=O)Nc1cccc(Cl)c1
  MITF inhib: -18
#40 Cc1cc(C)nc(SC(C)C(=O)Nc2ccc(Cl)cc2)n1 (stereo not drawn)
  MITF inhib: 11

#41 COC(=O)CC1C(=O)NCCN1C(=S)Nc1cccc(OC)c1 (stereo not drawn)
  MITF inhib: -11
#42 O=C(CN1CCOCC1)Nc1ccc([N+](=O)[O-])cc1C(=O)Nc1ccccc1F
  MITF inhib: 4
#43 Cn1c(SCC(=O)N2CCN(c3ccccc3)CC2)nnc1-c1cc2ccccc2o1
  MITF inhib: 23
#44 COc1cccc(-c2nnc(SCC(=O)Nc3cccc([N+](=O)[O-])c3)n2C)c1
  MITF inhib: 17
#45 O=C(CSc1nc(-c2ccccc2)cc(=O)[nH]1)Nc1ccc(Br)cc1
  MITF inhib: -12
#46 COc1ccc(OC)c(NC(=O)COc2ccc(F)cc2)c1
  MITF inhib: 4
#47 COC(=O)c1c(NC(=S)Nc2nc(C)cc(C)n2)sc2c1CCC2
  MITF inhib: 3
#48 O=C(COc1cccc(C(F)(F)F)c1)Nc1cccnc1
  MITF inhib: 0
#49 O=C(CS(=O)(=O)Cc1ccccc1)Nc1ncccn1
  MITF inhib: 1
#50 COc1cc(-c2nc3ccccc3s2)ccc1OCC(=O)Nc1ccc(C)cc1
  MITF inhib: -22

#51 COc1ccc(S(=O)(=O)N(C)CC(=O)Nc2ccccc2Cl)cc1
  MITF inhib: 0
#52 Cc1ccc(NC(=O)CSc2n[nH]c(-c3ccncc3)n2)cc1
  MITF inhib: 8
#53 O=C(CSc1n[nH]c(-c2ccc(Cl)cc2)n1)Nc1cccc(F)c1
  MITF inhib: 9
#54 COc1ccc(C)cc1N(CC(=O)Nc1ccc(C)c(Cl)c1)S(C)(=O)=O
  MITF inhib: -4
#55 COc1cc(NC(=O)COc2ccccc2C)ccc1NC(=O)c1ccccc1Cl
  MITF inhib: -11
#56 CCc1nc(SCC(=O)Nc2ccc(C(=O)OC)cc2)n[nH]1
  MITF inhib: 1
#57 O=C(CSc1nc2ccc(NC(=O)c3ccccc3)cc2s1)Nc1ccccc1C(F)(F)F
  MITF inhib: -25
#58 COc1ccc(OC)c(NC(=O)CNC(=O)c2ccccc2F)c1
  MITF inhib: 6
#59 O=[N+]([O-])c1ccc(OCCCSc2ncccn2)cc1
  MITF inhib: -72
#60 CC(=O)c1cccc(NC(=O)Cn2nc([N+](=O)[O-])c(Br)c2C)c1
  MITF inhib: -12

#61 Cn1c(NCCO)nc2c1c(=O)n(Cc1ccccc1Cl)c(=O)n2C
  MITF inhib: -10
#62 COc1ccc(C(=O)CSc2nnc(-c3ccccc3)n2-c2ccc(Br)cc2)cc1
  MITF inhib: -4
#63 CCCC(=O)n1nc(-c2ccccc2)nc1NCc1ccco1
  MITF inhib: -80
#64 O=C1NC(c2ccccc2)(C(F)(F)F)C(=O)N1Cc1cccnc1 (stereo not drawn)
  MITF inhib: 9
#65 Cc1ccc(NC(=O)CN(C)S(=O)(=O)c2ccc(C)cc2)cc1
  MITF inhib: 3
#66 COc1ccc(OC)c(S(=O)(=O)N2CCC(C(=O)Nc3cccc(C(F)(F)F)c3)CC2)c1
  MITF inhib: 31
#67 CCn1c(SCC(=O)Nc2ccc(Br)c(Cl)c2)nnc1-c1ccccc1
  MITF inhib: 1
#68 COc1cc(S(=O)(=O)Nc2ccncc2)c(OC)cc1Cl
  MITF inhib: -11
#69 O=C(O)CSc1cn(Cc2ccccc2)c2ccccc12
  MITF inhib: 1
#70 O=C(COc1ccc(Cl)cc1)Nc1ccc(O)cc1C(=O)O
  MITF inhib: 7

#71 CS(=O)(=O)CCC(C(=O)N1CCOCC1)N1C(=O)c2cc(Cl)c(Cl)cc2C1=O (stereo not drawn)
  MITF inhib: 3
#72 COc1ccc(CCNc2oc(-c3ccc(C)cc3)nc2C#N)cc1OC
  MITF inhib: -11
#73 COc1ccc(-c2nc(SCC(=O)Nc3cccc(Br)c3)n[nH]2)cc1
  MITF inhib: 3
#74 O=C(CN1C(=O)c2ccccc2C1=O)Oc1c(-c2ccccc2)oc2ccccc2c1=O
  MITF inhib: -48
#75 COc1ccccc1CNCc1ccc(OC)c(OC)c1OC
  MITF inhib: -12
#76 Cc1nnc(SCC(=O)Nc2cc(Cl)ccc2C)s1
  MITF inhib: -5
#77 Cc1ccn2cc(-c3cccc(NS(=O)(=O)c4cc([N+](=O)[O-])ccc4C)c3)nc2c1
  MITF inhib: -57
#78 O=C(NCCCN1CCCC1=O)c1cc(-c2ccccn2)nc2ccc(Br)cc12
  MITF inhib: -6
#79 COc1ccc(-c2nnc(SCC(=O)Nc3cccc(C(C)=O)c3)n2-c2ccccc2)cc1
  MITF inhib: 1
#80 COc1cc(Cc2nccc3cc(OC)c(OC)cc23)c(NC(=O)c2cccs2)cc1OC
  MITF inhib: -21

Arranged by molecular weight (descending): three of the compounds above
#72 COc1ccc(CCNc2oc(-c3ccc(C)cc3)nc2C#N)cc1OC
  MITF inhib: -11
#75 COc1ccccc1CNCc1ccc(OC)c(OC)c1OC
  MITF inhib: -12
#76 Cc1nnc(SCC(=O)Nc2cc(Cl)ccc2C)s1
  MITF inhib: -5

Screen by screen, quoted from above:
MITF inhib, nos. 71–80: 3, -11, 3, -48, -12, -5, -57, -6, 1, -21

Remaining list, next part
#81 Cc1ccc(S(=O)(=O)NC2(C(F)(F)F)C(=O)N(Cc3ccco3)C3=C2C(=O)CC(C)(C)C3)cc1 (stereo not drawn)
  MITF inhib: 2
#82 COc1ccc(OC)c(NC(=O)CSc2nnc(-c3ccccc3)n2C)c1
  MITF inhib: 5
#83 CCOC(=O)c1ccc(NC(=O)Cn2c(C(F)(F)F)nc3ccccc32)cc1
  MITF inhib: 26
#84 O=C(Cn1c(S(=O)(=O)Cc2ccccc2)nc2ccccc21)N1CCOCC1
  MITF inhib: -12
#85 O=C(CNS(=O)(=O)c1ccc(Cl)cc1)Nc1cccc([N+](=O)[O-])c1
  MITF inhib: -6
#86 Cc1ccc(OCC(=O)Nc2ccccc2C#N)cc1C
  MITF inhib: -75
#87 CC(C(=O)Nc1ccc(Oc2ccccc2)cc1)N(c1ccc(Cl)cc1)S(C)(=O)=O (stereo not drawn)
  MITF inhib: 37
#88 COc1ccc(NC(=O)Cn2c(-c3ccccc3)nc3sc4c(c3c2=O)CCCC4)cc1
  MITF inhib: -18
#89 COc1ccc(NC(=O)c2ccc(OC(C)C(=O)O)cc2)cc1Cl (stereo not drawn)
  MITF inhib: 9
#90 COC(=O)COc1cccc(NC(=O)c2ccccc2I)c1
  MITF inhib: 0

Of the compounds above, four have a cyano group.
#33 N#Cc1ccccc1CSc1nc2ccc(NC(=O)c3ccc(F)cc3)cc2s1
  MITF inhib: 1
#34 N#Cc1c(-c2ccccc2)cc(-c2ccccc2)nc1SCC(=O)O
  MITF inhib: 29
#72 COc1ccc(CCNc2oc(-c3ccc(C)cc3)nc2C#N)cc1OC
  MITF inhib: -11
#86 Cc1ccc(OCC(=O)Nc2ccccc2C#N)cc1C
  MITF inhib: -75

Later entries.
#91 Cc1ccc(OCC(=O)Nc2ccccc2C(=O)Nc2ccccc2)c(Br)c1
  MITF inhib: -17
#92 CCn1c(SCC(=O)c2ccc(Cl)cc2Cl)nnc1-c1cccnc1
  MITF inhib: -14
#93 COc1cc(S(=O)(=O)NC2CC(C)(C)NC(C)(C)C2)c(OC)cc1Cl
  MITF inhib: 7
#94 COc1ccc(C2(CNC(=O)CC#N)CCCC2)cc1OC
  MITF inhib: 4
#95 Cc1ccc(Cl)cc1NC(=O)C1CC=CCC1C(=O)O (stereo not drawn)
  MITF inhib: -15
#96 COc1ccc(C)cc1NC(=O)CN(c1cc(Cl)c(Cl)cc1Cl)S(C)(=O)=O
  MITF inhib: 14
#97 Cc1c(Cl)cccc1NC(=O)CN(c1ccc2c(c1)OCCO2)S(C)(=O)=O
  MITF inhib: 0
#98 CCN(CC(=O)Nc1cccc(OC)c1)S(=O)(=O)c1ccc(Cl)cc1
  MITF inhib: 0
#99 CC1(C)CC(=O)C2=C(C1)N(Cc1ccco1)C(=O)C2(NC(=O)c1ccc(Cl)cc1Cl)C(F)(F)F (stereo not drawn)
  MITF inhib: 2
#100 Cc1ccc(NC(=O)c2ccc(NCc3ccco3)c([N+](=O)[O-])c2)cc1Cl
  MITF inhib: 15

#101 O=C(CN1C(=O)c2ccccc2S1(=O)=O)Nc1ccc(F)c(F)c1
  MITF inhib: 22
#102 CN(C)c1nc(OCCNC(=O)Nc2ccc(Cl)cc2)nc(N(C)C)n1
  MITF inhib: 0
#103 CCNc1nc(SCC(N)=O)nc(N2CCOCC2)n1
  MITF inhib: -9
#104 O=C(O)CCc1nc2c3c4c(sc3ncn2n1)CCCC4
  MITF inhib: -11
#105 COc1ccc(C)cc1NC(=O)CN(c1cccc(F)c1)S(C)(=O)=O
  MITF inhib: 14
#106 COc1ccc(S(=O)(=O)N(C)CC(=O)Nc2cc([N+](=O)[O-])ccc2C)cc1C
  MITF inhib: 26
#107 COC(=O)c1ccccc1NC(=O)CSc1nnc(-c2ccccc2)o1
  MITF inhib: -22
#108 COc1ccc(OC(C)C(=O)Nc2ccc(C(N)=O)cc2)cc1 (stereo not drawn)
  MITF inhib: -1
